rRNA inh HTS – selective bacterial rRNA inhibition in E. coli; GFP signal change (wild-type ribosome), % (concentration not given with the values); AID 720706; E. coli WT GFP vs humanized-ribosome RFP mutants, fluorescence, 24 h; stronger effect = lower value; DMSO median 0, no signal -100; 350,000 tested, 1.6% active;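 active = significant combined selectivity score with lowered wild-type GFP, culture density cut under 30%, mutant RFP and density less affected; inactive = any of these conditions unmet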; note: one replicate is shown; some compounds called inactive have numbers as strong as hits
rRNA inh HTS OD600 – further read-out of rRNA inh HTS, marked with its call; OD600 change, %; measured here: OD600 growth;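 optical density of the mix in the first replicate; 0 = DMSO median and -100 = no signal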
rRNA inh HTS RFP – recorded beside rRNA inh HTS, whose call it bears; RFP signal change, %; measured here: RFP humanized mutant strains;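 first replicate; 0 = DMSO median and -100 = no signal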
* = called active by the depositor; & = joins results of further samples. These rows are one share of the data; rates above refer to the full screens.

entry	compound	rRNA inh HTS	rRNA inh HTS OD600	rRNA inh HTS RFP
1	C[C@@H]1CN([C@H](C)CO)C(=O)c2cc(/C=C/c3ccccc3)cnc2O[C@H]1CN(C)Cc1ccncc1	-5	-5	0.0
2	CC(C)NC(=O)N(C)C[C@H]1Oc2c(NS(=O)(=O)c3cn(C)cn3)cccc2C(=O)N([C@@H](C)CO)C[C@H]1C	1	4	0.3
3	C[C@H]1CN([C@@H](C)CO)C(=O)c2cccc(NC(=O)CCCCCC(=O)Nc3ccccc3N)c2O[C@@H]1CN(C)C(=O)Nc1ccccc1	3	9	-1.2
4	C[C@@H](O)C#Cc1cnc2c(c1)C(=O)N([C@@H](C)CO)C[C@H](C)[C@@H](CN(C)CC1CCOCC1)O2	1	3	-1.3
5	C[C@H](CO)N1C[C@H](C)[C@@H](CN(C)Cc2ccc(C(F)(F)F)cc2)Oc2c(NC(=O)NC3CCCCC3)cccc2C1=O	-4	10	-2.9
6	O=C(C[C@@H]1CC[C@@H]2[C@H](COC[C@H](O)CN2Cc2ccccc2)O1)NCCCN1CCOCC1	4	9	4.2
7	COc1ccc(CN(C)C[C@@H]2OCCCC[C@@H](C)Oc3ccc(NS(C)(=O)=O)cc3C(=O)N([C@@H](C)CO)C[C@H]2C)cc1	-1	1	-3.2
8	C[C@H](CO)N1C[C@H](C)[C@H](CN(C)C(=O)Cc2ccccc2)OCCCC[C@H](C)Oc2ccc(NC(=O)Nc3ccccc3)cc2C1=O	1	-4	-1.0
9	O=C(C[C@@H]1C[C@H]2c3cc(NC(=O)Nc4ccccc4F)ccc3O[C@H]2[C@@H](CO)O1)NC1CCCC1	-2	-6	-1.4
10	CNC[C@@H]1Oc2ncc(-c3cc4ccccc4o3)cc2C(=O)N([C@H](C)CO)C[C@@H]1C	4	14	2.9
11	O=C(c1ccccc1F)N1C[C@@H]2[C@H](c3ccccc31)[C@@H](CO)N2C(=O)C1CCCC1	-4	6	-0.7
12	Cc1ccc(S(=O)(=O)N[C@@H]2CC[C@@H](CCNS(=O)(=O)Cc3ccccc3)O[C@@H]2CO)cc1	0	-6	4.4
13	Cc1noc(C)c1NC(=O)N[C@@H]1CC[C@@H](CC(=O)N2CCCCC2)O[C@@H]1CO	1	4	-2.6
14	C[C@@H]1CN([C@H](C)CO)C(=O)c2cc(C#C[C@@H](C)O)cnc2O[C@H]1CN(C)Cc1ccc(-c2ccccc2)cc1	2	1	2.5
15	Cc1noc(C)c1C(=O)N1CCC1(C)C(=O)NS(=O)(=O)c1cccs1 (stereo unspecified)	6	7	1.9
16	Cc1ccc(S(=O)(=O)Nc2ccc3c(c2)C(=O)N([C@H](C)CO)C[C@H](C)[C@@H](CN(C)Cc2ccncc2)OCCCC[C@@H](C)O3)cc1	-1	-2	0.0
17	COc1cccc(-c2ccc([C@@H]3[C@@H](C#N)N(C(=O)Cc4ccncc4)[C@@H]3CO)cc2)c1	3	-10	0.7
18	O=C(CN1CCOCC1)NCC[C@@H]1CC[C@H](NC(=O)c2ccc3c(c2)OCO3)[C@H](CO)O1	3	-3	-1.6
19	Cc1noc(C)c1S(=O)(=O)Nc1ccc2c(c1)CC(=O)N([C@@H](C)CO)C[C@@H](C)[C@H](CN(C)C(=O)NC1CCCCC1)O2	1	-1	0.5
20	O=C(C[C@H]1CC[C@@H]2[C@H](COC[C@H](O)CN2C(=O)Nc2cccc(Cl)c2)O1)N1CCCCC1	-55	-77	-15
21	C[C@@H]1CN([C@@H](C)CO)C(=O)c2cccc(NC(=O)c3nc4ccccc4s3)c2O[C@@H]1CN(C)CC1CCCCC1	-3	-5	-0.2
22	Cc1cccc(S(=O)(=O)N[C@H]2CC[C@@H](CCNS(=O)(=O)c3ccccc3F)O[C@@H]2CO)c1	-5	3	1.9
23	C[C@@H]1CCCCO[C@@H](CN(C)C(=O)C2CCCCC2)[C@H](C)CN([C@H](C)CO)C(=O)c2cc(NC(=O)Nc3ccc(C(F)(F)F)cc3)ccc2O1	2	4	-0.5
24	CC(C)NC(=O)Nc1cccc2c1O[C@@H](CN(C)S(C)(=O)=O)[C@@H](C)CN([C@H](C)CO)C2=O	-2	7	0.6

Retrieved one by one from the entries so far (4):
entry	compound	rRNA inh HTS	rRNA inh HTS OD600	rRNA inh HTS RFP
21	C[C@@H]1CN([C@@H](C)CO)C(=O)c2cccc(NC(=O)c3nc4ccccc4s3)c2O[C@@H]1CN(C)CC1CCCCC1	-3	-5	-0.2
20	O=C(C[C@H]1CC[C@@H]2[C@H](COC[C@H](O)CN2C(=O)Nc2cccc(Cl)c2)O1)N1CCCCC1	-55	-77	-15
18	O=C(CN1CCOCC1)NCC[C@@H]1CC[C@H](NC(=O)c2ccc3c(c2)OCO3)[C@H](CO)O1	3	-3	-1.6
13	Cc1noc(C)c1NC(=O)N[C@@H]1CC[C@@H](CC(=O)N2CCCCC2)O[C@@H]1CO	1	4	-2.6

Carrying on:
entry	compound	rRNA inh HTS	rRNA inh HTS OD600	rRNA inh HTS RFP
25	COCC(=O)N1[C@H](C#N)[C@H](c2ccccc2-c2ccc(C)cc2)[C@H]1CO	-4	4	-0.4
26	Cc1noc(C)c1NC(=O)Nc1ccc2c(c1)CC(=O)N([C@@H](C)CO)C[C@H](C)[C@@H](CN(C)S(C)(=O)=O)O2	6	31	-0.8
27	CCCS(=O)(=O)NC(=O)C1(C)CCCN(C(=O)c2cc(OC)c(OC)c(OC)c2)C1 (stereo unspecified)	7	0	0.9
28	CC(C)NC(=O)Nc1ccc2c(c1)C(=O)N([C@H](C)CO)C[C@H](C)[C@@H](CN(C)CC1CCCCC1)O2	0	-7	1.3
29	CCC(=O)N1CC2(C1)CN(Cc1ccccn1)[C@H](CO)c1[nH]c3cc(OC)ccc3c12	4	22	-2.6
30	C[C@H](CO)N1C[C@H](C)[C@@H](CN(C)C(=O)NC2CCCCC2)Oc2ccc(NC(=O)Nc3ccc4c(c3)OCO4)cc2CC1=O	-1	3	-2.2
31	O=C(NCC[C@H]1CC[C@H](NC(=O)Nc2cc(F)ccc2F)[C@@H](CO)O1)Nc1ccc(Cl)cc1	-45	-68	19
32	CC(=O)C1=CCC(c2ccc(Cl)cc2)N(S(=O)(=O)c2ccccc2C)C1 (stereo unspecified)	-5	-23	-4.9
33	CC1(C(=O)Nc2ccc(Cl)c(Cl)c2)CCN1C(=O)Cc1cccc2ccccc12 (stereo unspecified)	-5	4	-1.9
34	O=C(Cc1ccccn1)N1[C@@H]2CNc3ccccc3[C@@H]2[C@@H]1CO	2	8	0.3
35	CS(=O)(=O)N1C[C@H](O)COC[C@@H]2O[C@H](CC(=O)NCc3ccc(-c4ccccc4)cc3)CC[C@H]21	-31	-45	9.5
36	COc1ccc(CCC2=NCCN2C(CC(C)C)c2nc3ccccc3[nH]2)cc1 (stereo unspecified)	6	-6	-0.2
37	C[C@@H]1CN([C@H](C)CO)C(=O)c2cc(NC(=O)NC3CCCCC3)ccc2O[C@@H](C)CCCCO[C@H]1CN(C)C(=O)c1ccncc1	-3	-3	-1.1
38	C[C@H]1CN([C@@H](C)CO)C(=O)c2cc(NC(=O)CCC(F)(F)F)ccc2O[C@@H]1CN(C)Cc1ccc2c(c1)OCO2	3	6	-0.1
39	C[C@@H]1CCCCO[C@H](CN(C)Cc2ccncc2)[C@H](C)CN([C@H](C)CO)C(=O)c2cc(NC(=O)Nc3cccc4ccccc34)ccc2O1	-6	-8	6.2
40	C[C@H]1CN([C@@H](C)CO)C(=O)c2cccc(NC(=O)C3CC3)c2O[C@@H]1CN(C)Cc1ccc2c(c1)OCO2	-3	1	-1.2
41	Fc1ccc(-c2nc3c(Cl)cc(C(F)(F)F)cn3c2Cc2cccc(Cl)c2)cc1	-16	-9	14
42	CCC(=O)N1CCCCN2[C@H](CO)[C@@H](c3ccc(/C=C/c4ccccc4)cc3)[C@@H]2C1	-59	-74	-11
43	CC(=O)NC(c1cccc(F)c1)c1nc(-c2ccccc2)cs1 (stereo unspecified)	-2	3	2.3
44	COCC(=O)Nc1ccc2c(c1)[C@@H]1C[C@H](CC(=O)NCc3ccccn3)O[C@@H](CO)[C@@H]1O2	1	-2	-0.1
45	C[C@H](CO)N1C[C@H](C)[C@@H](CN(C)C(=O)NC2CCCCC2)Oc2c(NC(=O)c3cnccn3)cccc2C1=O	1	4	-1.0
46	COc1ccc(NC(=O)N[C@@H]2CC[C@H](CC(=O)NCc3ccccn3)O[C@@H]2CO)cc1	2	0	-2.3
47	C[C@@H]1CCCCO[C@@H](CN(C)Cc2ccc(C(=O)Nc3ccccc3N)cc2)[C@@H](C)CN([C@H](C)CO)C(=O)c2cc(NC(=O)Nc3ccc(C(F)(F)F)cc3)ccc2O1	0	-3	0.4
48	CO[C@@H](CN(C)Cc1cc(F)ccc1F)[C@H](C)CN(C(=O)Nc1ccc(F)cc1)[C@H](C)CO	1	5	-6.5
49	COc1ccc2c3c(n(C)c2c1)[C@@H](CO)N(C(=O)Nc1ccc(F)cc1)CC31CCN(C(=O)Nc2c(C)noc2C)CC1	-3	-8	-0.9
50	C[C@@H]1CN([C@@H](C)CO)S(=O)(=O)c2ccc(/C=C/c3ccccc3)cc2O[C@H]1CN(C)C(=O)c1ccncc1	-14	-36	-9.8
51	CCCNC(=O)N1CCC2(CC1)CN(C(=O)NC1CCCC1)[C@H](CO)c1[nH]c3cc(OC)ccc3c12	-3	-17	-1.4
52	Cc1cc(Nc2cccc(Br)c2)cc(=O)n1-c1cccc(Br)c1	-1	-6	-1.0
53	C[C@H](CO)N1C[C@H](C)[C@@H](CN(C)C(=O)C2CCOCC2)Oc2ncc(/C=C/c3ccccc3)cc2C1=O	0	-4	-2.2
54	COc1cccc(CN2[C@H](CO)[C@@H](c3ccccc3)C23CN(C(=O)C2CC2)C3)c1	2	3	-2.6
55	CO[C@@H]1CN(C)C(=O)c2ccc(NC(=O)NC(C)C)cc2OC[C@@H](C)N(C)C[C@@H]1C	2	22	-0.5
56	Cc1ccc(S(=O)(=O)N(C)C[C@@H]2OCCCC[C@@H](C)Oc3ccc(NC(=O)Cc4ccccc4)cc3C(=O)N([C@@H](C)CO)C[C@@H]2C)cc1	1	4	-1.7
57	O=C(Cc1ccccn1)N1CC(=O)N2[C@H](CO)[C@H](c3ccc(-c4ccc(F)cc4)cc3)[C@@H]2C1	2	5	-6.3
58	Cc1ccc(C(=O)N2c3ccccc3Sc3ccccc32)cc1	-7	3	-2.2
59	COc1ccccc1S(=O)(=O)N(C)C[C@H]1OCc2cn(nn2)CCCC(=O)N([C@@H](C)CO)C[C@H]1C	2	2	1.4
60	O=C(Nc1cccc(F)c1)N[C@@H]1CC[C@@H](CCNS(=O)(=O)c2cccc(Cl)c2)O[C@H]1CO	-1	-16	2.6

Exported with two lines to a compound: part of the list above.
Every second line gives: rRNA inh HTS	rRNA inh HTS OD600	rRNA inh HTS RFP
56) Cc1ccc(S(=O)(=O)N(C)C[C@@H]2OCCCC[C@@H](C)Oc3ccc(NC(=O)Cc4ccccc4)cc3C(=O)N([C@@H](C)CO)C[C@@H]2C)cc1
→ 1	4	-1.7
57) O=C(Cc1ccccn1)N1CC(=O)N2[C@H](CO)[C@H](c3ccc(-c4ccc(F)cc4)cc3)[C@@H]2C1
→ 2	5	-6.3

Following part:
entry	compound	rRNA inh HTS	rRNA inh HTS OD600	rRNA inh HTS RFP
61	COc1ccc(N2c3ccccc3CN(Cc3ccccc3)CC2Cc2cc(OC)c(OC)c(OC)c2)cc1 (stereo unspecified)	-5	36	4.9
62	O=C(CN1CCOCC1)N1CCCCN2[C@H](C1)[C@H](c1ccc(C#Cc3ccccc3)cc1)[C@@H]2CO	4	-11	6.4
63	CC(C)NC(=O)N[C@H]1CC[C@@H](CCN)O[C@H]1CO	5	11	0.7
64	COc1ccc(NC(=O)Nc2nnc([C@H]3C[C@H](O)[C@@H](CO)O3)s2)cc1	6	12	-0.2
65	C[C@@H]1CCCCO[C@H](CN(C)Cc2ccncc2)[C@H](C)CN([C@@H](C)CO)C(=O)c2cc(NC(=O)C3CCCCC3)ccc2O1	-6	-5	3.1
66	C[C@H]1CN([C@@H](C)CO)S(=O)(=O)c2ccc(C#Cc3ccccn3)cc2O[C@@H]1CN(C)Cc1ccccc1	-9	-21	-2.0
67	C[C@H]1CN([C@@H](C)CO)S(=O)(=O)c2ccc(-c3ccc(C(=O)N(C)C)cc3)cc2O[C@@H]1CN(C)Cc1ccccc1C(=O)O	4	10	-2.3
68	CC(C)(C)S(=O)N1Cc2cc(C(=O)NCc3ccc4c(c3)OCO4)nc(-c3cccc(-c4cc5ccccc5o4)c3)c2[C@@H]1CCO (stereo partly specified)	-14	-6	7.6
69	CC(C)C#Cc1ccc([C@@H]2[C@H](C#N)N(C(=O)C3CCC3)[C@H]2CO)cc1	2	0	-0.2
70	Cc1cccc(S(=O)(=O)N2C[C@@H]3N[C@H](C2)C3c2ccc(-c3cccc(C(=O)N(C)C)c3)cc2)c1 (stereo partly specified)	2&-2	-4&9	-1.4&1.2
71	Cc1ccc(-c2ccc3c(c2)O[C@H](CN(C)S(C)(=O)=O)[C@@H](C)CN([C@@H](C)CO)S3(=O)=O)cc1	-5	-17	-0.3
72	O=C(C[C@H]1C[C@H]2c3cc(NC(=O)c4cccnc4)ccc3O[C@H]2[C@H](CO)O1)NCc1cc(F)ccc1F	-7	-2	0.5
73	CC(=O)N1[C@@H]2Cn3c(cccc3=O)[C@H]1[C@@H](C(=O)NCC1CCCCC1)[C@@H]2CO	2	2	1.2
74	CCCCCC(=O)N1C[C@H](O)[C@@H](n2cc(C3CC3)nn2)C[C@@H]1c1ccc(Cl)cc1	-4	-3	-0.6
75	C[C@@H]1CN([C@H](C)CO)S(=O)(=O)c2ccc(/C=C/c3ccccc3)cc2O[C@H]1CN(C)C(=O)CN1CCOCC1	0	-2	1.2
76	COc1ccc(S(=O)(=O)Nc2ccc3c(c2)C(=O)N([C@@H](C)CO)C[C@@H](C)[C@H](CN(C)S(=O)(=O)c2ccc(F)cc2)OCCCC[C@H](C)O3)cc1	7&-1	15&3	8.1&-1.6

From PubChem
